# Assay outcomes: PubChem BioAssay, several laboratories
# GALR2 agonist: GALR2 receptor agonists, primary screen, cell-based | Galanin receptor type 2 (Homo sapiens), O43603 | GALR2-expressing cells, agonist activation read-out | activation, %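 (tested at 5 µM)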 | actives 0.48% (n = 140,000);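 active means above mean plus 3 SD of all compounds, about 5% in these data, not always enough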;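 further: 0% = vehicle buffer wells and 100% = reference agonist at full effect; tested in CHO reporter cells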
# Target sequence (O43603 whole entry, looked up): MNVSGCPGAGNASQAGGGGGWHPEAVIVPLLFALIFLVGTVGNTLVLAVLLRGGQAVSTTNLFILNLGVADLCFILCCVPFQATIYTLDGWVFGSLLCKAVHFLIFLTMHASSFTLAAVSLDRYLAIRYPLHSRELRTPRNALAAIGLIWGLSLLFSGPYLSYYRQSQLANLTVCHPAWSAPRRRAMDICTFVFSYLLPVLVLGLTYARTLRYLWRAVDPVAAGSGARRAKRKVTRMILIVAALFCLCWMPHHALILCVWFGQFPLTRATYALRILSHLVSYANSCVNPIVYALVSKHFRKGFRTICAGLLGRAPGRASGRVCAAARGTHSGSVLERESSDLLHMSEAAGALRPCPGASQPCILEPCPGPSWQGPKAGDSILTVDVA
# HSV augment: enhancers of HSV replication in host cells, fold increase, host cell viability; maximum fold increase; HSV replication augmentation in cells; actives 0.005% (n = 220,000);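 active means peak rise of 1.5-fold or more in the series; inconclusive means self-fluorescent or not available for retest; tested in PC3 cells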;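 further: first round at 10 µM; read as green reporter fluorescence; hits show the peak of a series up to 25 µM; 1 = signal of infected wells without compound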
# PKD1 inh: inhibitors of human PKD1 kinase, biochemical, fluorescence polarization; Serine/threonine-protein kinase D1 (Homo sapiens), Q15139; PKD1 kinase fluorescence polarization assay; inhibition, %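 (about 10 µM by stock and volumes)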; actives 0.056% (n = 200,000);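 active means inhibition of 50% or more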;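 further: controls were vehicle for no effect and a reference inhibitor for full effect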
# Insulin prom inh: inhibitors of insulin promoter-driven GFP, primary screen, imaging, TRM-6 cells (human fetal islet line), eGFP reporter, cell count. reporter expression induced with tamoxifen. inhibition, % at 2 µM. actives 0.9% (n = 130,000);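 active means inhibition above the mean plus 3 SD, with well images judged a real hit on visual review, cut at about 60% in these data, passing the limit was not always enough; inconclusive means inhibition over the cutoff but images rejected on review; inactive means inhibition not above the cutoff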
# RGS16-Gao HTS: modulators of RGS16 binding to Galphao, primary screen, biochemical, human proteins, multiplexed bead flow cytometry; Regulator of G-protein signaling 16 (Homo sapiens) + Guanine nucleotide-binding protein …; bead-based flow cytometry RGS16-Galphao binding, fluorescence; actives lie on both sides; binding response (% of control), % at 10 µM; actives 0.38% (n = 220,000);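 active means below 25% or above 175%, edge rows of some plates excepted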;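 further: Galphao activated by GDP with aluminum fluoride before binding; 100% = wells without compound and 0% = beads without RGS; some results beyond the cut were filed as inactive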
# Target sequence (O15492 whole entry, looked up): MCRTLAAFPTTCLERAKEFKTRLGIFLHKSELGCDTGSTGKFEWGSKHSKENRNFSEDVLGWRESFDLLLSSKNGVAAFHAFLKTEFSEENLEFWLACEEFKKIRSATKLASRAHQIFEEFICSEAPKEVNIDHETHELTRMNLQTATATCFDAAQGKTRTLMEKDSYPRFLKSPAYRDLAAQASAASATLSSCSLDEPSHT
# Target sequence (P09471 whole entry, looked up): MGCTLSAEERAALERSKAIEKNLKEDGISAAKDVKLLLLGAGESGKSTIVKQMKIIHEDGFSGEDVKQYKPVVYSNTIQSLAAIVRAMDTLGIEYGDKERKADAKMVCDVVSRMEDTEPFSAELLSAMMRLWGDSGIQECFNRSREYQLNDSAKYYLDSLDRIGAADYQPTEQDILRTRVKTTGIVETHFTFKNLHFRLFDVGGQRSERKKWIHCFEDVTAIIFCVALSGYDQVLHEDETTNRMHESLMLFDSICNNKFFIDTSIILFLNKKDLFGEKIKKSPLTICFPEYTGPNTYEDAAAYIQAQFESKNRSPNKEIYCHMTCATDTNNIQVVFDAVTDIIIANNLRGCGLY
# Insulin prom inh cell count: second read-out of Insulin prom inh, no call of its own (marks repeat the call); normalized cell count, %; measured here: cell count, toxicity; reference of the scale not given here;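 cells exposed to compound for 48 h; stained nuclei by imaging scaled within each plate; lower means fewer cells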
# HSV augment primary fold: second read-out of HSV augment, no call of its own (marks repeat the call); fold increase; compound at 10 µM; measured here: primary screen fold increase 10 uM; tested in PC3 cells;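 GFP signal in the first replicate; 1 = infected wells without compound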
# * = called active by the depositor; i = inactive; ? = inconclusive; · = no result given.
SMILES,GALR2 agonist,HSV augment,HSV augment primary fold,PKD1 inh,Insulin prom inh,Insulin prom inh cell count,RGS16-Gao HTS
O=C(NCc1ccc2c(c1)OCO2)C12CN(Cc3ccccc3)CC1C(c1cccc([N+](=O)[O-])c1)=NO2 (stereo not given),-1.4,i,0.96,-1,-39,101,72
O=C(Nc1ccc(Cl)cc1)C1CC=CCC1C(=O)OCC(F)(F)C(F)F (stereo not given),-2.5,i,1,-15,-178,39,95
CC1(C)CC(=O)C/C(=N\NC(=O)C2CC23CCC3)C1 (stereo not given),·,i,0.83,5,21,112,92
O=S(=O)(Nc1ccc(Cl)cc1)c1ccc(N2CCOCC2)c(NC(=S)NCCN2CCOCC2)c1,·,i,0.97,14,-64,108,80
N=c1c2c(n(Cc3ccc(Br)cc3)c3c1CCC3)CCCC2,-0.2,i,0.69,-14,17,53,22
O=C(c1ccco1)N1CCN(C(=O)c2ccc(Cn3cc(Br)cn3)o2)CC1,-0.7,·,·,-8,0,78,100
CN(C)S(=O)(=O)c1cccc(NC(=S)N/N=C/C2CC=CCC2)c1 (stereo not given),·,i,0.97,-9,·,·,72
O=c1[nH]c(CN2CCN(S(=O)(=O)c3ccccc3C(F)(F)F)CC2)nc2sc3c(c12)CCCC3,-0.8,i,0.97,-9,3,64,127
COc1ccc(S(=O)(=O)N2CCN(c3ccccn3)CC2)cc1[N+](=O)[O-],·,i,1.1,·,·,·,113
CCc1nnc(NC(=O)c2cc(C)nc3ccccc23)s1,·,i,1,0,·,·,99
COC(=O)c1cc2sc(Cl)cc2n1CC(=O)Nc1cccc(SC)c1,-0.7,i,0.99,7,·,·,95
O=C1SCCC1NC(=O)C(c1ccccc1)c1ccccc1 (stereo not given),·,i,0.99,·,·,·,101
COc1ccc(CN(Cc2ccc(C(=O)O)cc2)C(=S)Nc2ccccc2C)cc1OC,·,i,0.94,-4,7,57,99
C=C1CCN([C@H](C(=O)OCc2ccc(C)cc2)C(C)C)S(=O)(=O)c2ccccc21,·,i,1,·,·,·,114
Cn1c(SCC(=O)N2CCCc3ccccc32)nc2ccccc2c1=O,-1.3,i,0.9,9,-2,100,60
COc1cc(/C=N/n2cnnc2)ccc1Oc1nc(Cl)ncc1F,·,i,0.68,-1,18,75,118
NCCCCCc1nnc(SCC(N)=O)o1,·,i,1,6,·,·,97
O=C(CN1C(=O)c2ccccc2S1(=O)=O)c1ccccc1,0.3,i,0.92,-3,0,98,48
CCCn1c(/N=C/c2ccccc2O)nc2ccccc21,-1.1,i,0.87,-9,-78,71,103
CC1CCN(c2c(NCc3ccc(C(=O)N4CCN(C5CCCCC5)CC4)cc3)c(=O)c2=O)CC1,-1.4,·,·,-6,-7,89,136
Cc1ccc(NC(=O)CCCCCN2C(=O)c3ccccc3C2=O)nc1,-0.9,i,0.96,-16,·,·,101
CC(=O)c1ccc(N2CCN(C(=O)c3ccc4ccccc4n3)CC2)cc1,·,i,0.97,-5,·,·,94
CN(C)c1nc(SCc2ccc(Cl)cc2)nc2c1CCCC2,-1.4,i,1,8,-3,164,91
Fc1cccc(NC(=S)NCC(c2cccnc2)N2CCOCC2)c1 (stereo not given),-0.2,i,1.1,-1,·,·,102
CCN1CC(CNCc2cn(-c3ccc(OC)cc3)nc2-c2ccccc2Cl)CC1=O (stereo not given),·,i,0.9,3,·,·,43
C(=N/N1CCN(c2ccccc2)CC1)/c1cccs1,-0.2,i,1,-3,-65,102,100
CC(=O)NC(C)c1nc2ccccc2n1CC(=O)NC(C)CCc1ccccc1 (stereo not given),·,i,1,2,·,·,103
O=S(=O)(N=S(N1CCCCC1)N1CCCCC1)c1ccccc1,0.4,i,1.1,-18,·,·,99
c1ccc(Nc2nc(-c3ccncc3)cs2)cc1,-1.4,i,0.96,-6,24,132,102
Cc1cccc(-n2c3nc(=O)[nH]c(=O)c-3cc3c(C)nn(-c4ccccc4)c32)c1C,0.2,i,1.3,-6,18,52,23
Cc1nc2ccccc2c(-c2ccccc2)c1C(=O)c1ccccc1,-1.1,i,1.1,-3,·,·,121
CN(C)CCC(O)c1ccccc1 (stereo not given),·,i,1.1,·,·,·,105
Cc1ccc(OCc2nnc(SCC(=O)Nc3sc(C)c(C)c3C#N)n2C)cc1,-1.2,i,1,-8,·,·,102
CCc1ccc(N(CC)c2ncnc3nc[nH]c23)cc1,-1.0,i,0.79,-12,57,122,98
CN1/C(=C\C(=O)c2cccc(S(=O)(=O)N3CCCCC3)c2)C(C)(C)c2ccccc21,0.6,i,0.9,-9,-9,60,108
CC(=O)c1c(C)[nH]c(=S)c(C#N)c1-c1ccc(F)cc1,·,i,0.86,·,·,·,101
Cc1cc(-c2ccccc2)c2c3c(cn2n1)c(=O)n(C)c(=O)n3C,-0.8,i,0.94,-2,-5,156,107
Cc1cn(-c2cc(C(=O)Nc3ccc(C)c(NC(=O)N4CCNC4=O)c3)cc(C(F)(F)F)c2)cn1,·,i,0.85,·,·,·,99
CCOC(=O)c1sc(NC(=O)CSC(=S)N2CCOCC2)nc1C,·,i,1.1,·,·,·,102
CCOc1ccc(C(=O)NCC(c2cccs2)N(C)C)cc1 (stereo not given),-2.3,i,0.85,-3,-6,110,107
O=C(NNC1=Nc2cccc3cccc1c23)c1ccccc1Br,0.7,?,·,7,·,·,101
COc1cccc(C(=O)Nc2nnc(C3CCCO3)s2)c1 (stereo not given),-2.1,i,1,-3,-30,65,97
COc1ccc(NC(=O)CCC(=O)N/N=C/c2ccc([N+](=O)[O-])s2)cc1,-3.1,i,0.77,1,·,·,91
COc1cc(C2C(C#N)=C(C)NC3=C2C(=O)CC(C)(C)C3)ccc1O (stereo not given),-0.3,i,1,-10,-13,138,99
O=[N+]([O-])c1cc(/C=N/Nc2nc(N3CCOCC3)nc(N3CCOCC3)n2)ccc1Cl,-0.5,i,1,2,·,·,102
Cc1ccc(S(=O)(=O)N2CCCCC2)cc1NC(=O)c1ccc2c(=O)n3c(nc2c1)CCCCC3,-0.7,i,0.78,2,-53,98,107
CC(=O)N1CCC2(CC1)NC(=O)N(c1ccccc1)N2,·,i,0.94,3,40,99,116
CCOc1cc(C(=O)CCC(=O)OCC(=O)NC(=O)NCC(C)C)ccc1O,·,i,0.94,·,·,·,100
S=c1nc[nH]c2c1sc1nc(N3CCOCC3)c3c(c12)CCCC3,·,i,0.93,-2,·,·,102
CCCOC(=O)Cn1c(=O)c2cc3c(=O)n(CC(=O)OCCC)c(=O)c3cc2c1=O,-0.7,i,0.96,-5,33,72,101
# Next part.
SMILES,GALR2 agonist,HSV augment,HSV augment primary fold,PKD1 inh,Insulin prom inh,Insulin prom inh cell count,RGS16-Gao HTS
CCOC(=O)C1CCCN(C(=O)c2cn(C)c3ccc(S(=O)(=O)N4CCCC4)cc3c2=O)C1 (stereo not given),-2.0,i,0.96,-16,·,·,107
CCCS(=O)(=O)N1CCN(C2Cc3ccccc3C2)CC1,·,i,1,·,·,·,95
Cc1ccc(/C=N\NC(=O)c2cncc(Br)c2)o1,-0.3,i,1,6,-8,115,111
Cc1ccccc1OCC(O)CN (stereo not given),-0.5,i,1,-11,·,·,103
O=C(c1ccccc1)N1CCSc2sccc2C1=O,·,i,1,-4,·,·,99
COC(=O)CC1C(=O)NC2CCCCC2N1C(=O)CCl (stereo not given),·,i,1,·,·,·,98
O=C(COC(=O)CC(c1ccccc1)c1ccccc1)Nc1c(F)cccc1F,-0.2,i,0.95,-5,4,142,108
NS(=O)(=O)c1cccc(NC(=O)CN2CCCc3ccccc32)c1,·,i,0.98,0,·,·,102
Cc1cc(Cl)ccc1OCc1nc(-c2ccncc2)no1,·,i,0.98,3,·,·,104
Cc1cccc(-c2nnc(N)s2)c1,-1.1,i,0.84,-2,·,·,103
O=C(CN(Cc1ccco1)C(=O)c1ccc(Cl)cc1)Nc1c(Cl)cc(Cl)cc1Cl,-0.3,i,0.96,2,·,·,48
CCCS(=O)(=O)N1CCC(C(=O)NC2CCCC(C)C2C)CC1 (stereo not given),-0.6,i,0.99,-8,-22,198,99
O=S(=O)(NCCSc1ccccc1)c1ccc2c(c1)OCCO2,-1.7,i,1.1,-3,-14,115,98
CCOC(=O)c1ccc(COC(=O)c2cc(=O)[nH]c3ccccc23)o1,1.0,i,1.1,-9,-150,222,104
O=S(=O)(c1ccc(Cl)c(NC(=S)Nc2cccc(O)c2)c1)N1CCOCC1,-0.5,i,1,2,0,110,89
CN(C(=O)Cn1nnc(-c2cccc(C(F)(F)F)c2)n1)C1CCCCC1,-0.2,i,0.99,-1,-25,76,90
Cc1ccc(-c2csc(NC(=O)c3cccc([N+](=O)[O-])c3C(=O)O)n2)cc1,·,i,0.83,-2,14,11,100
CCCCC(CC)C(=O)NCCc1ccc(S(N)(=O)=O)cc1 (stereo not given),-0.9,i,0.89,-14,·,·,106
CC(CNC(=O)c1ccc(C(C)(C)C)cc1)CN(C)C (stereo not given),-0.4,·,·,11,-58,58,100
COc1ccc(-c2cc(C(=O)Nc3cccc(S(=O)(=O)NCc4ccco4)c3)c3ccccc3n2)cc1OC,·,i,0.84,-8,·,·,101
CCc1cc2cc(C)cc(C)c2[nH]c1=S,·,i,0.65,-6,25,77,101
COc1ccc(C2SCCN2C(=S)Nc2ccc(Cl)cc2)cc1 (stereo not given),-0.1,i,0.92,6,30,105,101
Cc1csc(NC(=O)c2cccc(S(=O)(=O)N3CCN(C)CC3)c2)n1,·,i,1,-1,-46,103,103
CCCCNC(=O)CCn1nc(-c2ccccc2)ccc1=O,-1.0,·,·,-7,21,105,112
CC(C)n1c(O)c(N=NC(=O)CNC(=O)CCc2ccccc2)c2ccccc21,·,i,1.2,·,·,·,101
O=C(Nc1ccc(CN2CCCCC2)cc1)c1ccc2c(c1)OCO2,-2.5,i,0.95,-3,-21,183,106
COC(=O)c1ccc(N2CCN(C(C)=O)CC2)c(NC(=O)COc2ccccc2C)c1,·,i,1,-3,·,·,105
O=C(Nc1cc(S(=O)(=O)N2CCOCC2)ccc1N1CCOCC1)c1cn2ccccc2n1,·,i,1,3,·,·,96
COc1cc(C(=O)NCc2ccccc2)ccc1OC(F)F,-0.3,i,0.98,1,·,·,102
Cc1cc(C)c(S(=O)(=O)n2ccc(-c3ccc(OCCN(C)c4ccccn4)cc3)n2)c(C)c1,-0.2,i,0.94,-17,-64,107,103
CCOc1ccc(-n2cnc3scc(-c4ccc(OC)c(OC)c4)c3c2=O)cc1,·,i,0.85,-3,·,·,103
CCOC(=O)c1ccc(NC(=O)C2CCC(CNc3c(N4CCOCC4)c(=O)c3=O)CC2)cc1 (stereo not given),·,i,1,·,·,·,99
C=CCn1c(COc2ccccc2)nnc1SCC(=O)NCC(=O)OCC,-1.4,i,1.1,-2,29,81,109
NC(=O)C1(N2CCCCC2)CCN(Cc2ccc(F)cc2)CC1,-2.3,i,0.97,0,-33,121,159
N#CC1(c2ccccc2)CCCN1C(=O)c1ccc(Br)o1 (stereo not given),-1.3,i,0.71,-14,18,69,100
CCN(CC)S(=O)(=O)c1ccc(-c2nnco2)cc1,-1.0,i,1,-3,·,·,106
CC(=O)N1CCc2c(sc(NC(=O)c3ccc(S(=O)(=O)N(C)C)cc3)c2C#N)C1,-1.8,i,0.81,-9,·,·,·
C#CCOC(=O)Nc1ccc(OCC(F)(F)F)nc1,·,i,1,·,·,·,102
